YjeE inh = displaces an ADP probe from E. coli YjeE (TsaE); Potency, µM; actives 0.05% (n = 71,000); purified YjeE, fluorescence polarisation of a bound ADP probe; AID 605; P0AF67; active = well fitted falling curve; inconclusive = weaker or top-dose-only fall, or a rising curve; inactive = flat or poorly fitted curve;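 also: top concentration of the series not given in the record; excess ADP was the control for the full effect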
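Purified YjeE (10 uM) with BODIPY Texas Red-labeled ADP probe (2 uM); compounds pin-transferred, 15 min at room temperature. Binding inhibition read as decreased fluorescence polarization; ADP titration as control.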
PK Bst = pyruvate kinase (B. stearothermophilus) modulation | actives 1.2% (n = 51,000) | Potency, µM | partly purified Bacillus stearothermophilus pyruvate kinase, luminescence ATP production; ribose 5-phosphate activator present at AC10; in the data active means potency below about 11 µM; inconclusive means mostly about 12 µM to 25 µM; inactive means weaker than that;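 the screen sought inhibitors and activators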;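 also: potency is read from the fitted curve at half-maximal effect; scaled between full activation by ribose 5 phosphate and full inhibition by luteolin; about four in five hits inhibit and the cells do not say which; series up to 57 µM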
Starred values were filed as active, the others as inactive; i = inactive; u = inconclusive; x = not tested or not shown. Only part of the results is shown; count on the stated rates, not on these rows.

YjeE inh	PK Bst	SMILES
i	>57	Cc1ccc(-c2nn3c(=O)c(C)nnc3s2)cc1
i	x	Cn1c(SCC(=O)Nc2cccc(F)c2)nnc1-c1cccnc1
i	>57	COCCNC(=O)CCn1c(=O)oc2ccccc21
i	>57	O=C(c1ccc2c(=O)n(-c3ccccc3)c(=O)[nH]c2c1)N1CCCCC1
i	x	CCOc1cccc(C(=O)Nc2nnc(-c3ccco3)s2)c1
i	x	COC(=O)[C@@]1(C)C=C[C@@H](Cc2ccccc2)N1C(C)=O
i	>57	Cc1ccc(S(=O)(=O)NCCCNC(=O)N2CCOCC2)cc1
i	x	Nc1ccccc1C(=O)C[C@@H](N)C(=O)O
i	u	CCOc1ncccc1C(=O)OCC(=O)c1cc(C)n(Cc2ccco2)c1C
i	x	Cc1ccnc(NC(=O)C2CCC(CNc3c(N4CCCC4)c(=O)c3=O)CC2)c1 (centres undefined)
i	>57	CCOC(=O)NC(=O)CSc1nc(C)cc(C(F)(F)F)c1C#N
i	>57	C/C(N)=C(/C#N)C(=O)COC(=O)C(NS(=O)(=O)c1ccc(Cl)cc1)C(C)O (centres undefined)

3 entries already listed, ordered by number of heavy atoms, ascending.
YjeE inh	PK Bst	SMILES
i	>57	Cc1ccc(-c2nn3c(=O)c(C)nnc3s2)cc1
i	>57	COCCNC(=O)CCn1c(=O)oc2ccccc21
i	>57	C/C(N)=C(/C#N)C(=O)COC(=O)C(NS(=O)(=O)c1ccc(Cl)cc1)C(C)O (centres undefined)

Additional results
YjeE inh	PK Bst	SMILES
i	>57	Cc1ccc(N2CC(C(=O)N3CCCc4ccccc43)CC2=O)cc1 (centres undefined)
i	x	NS(=O)(=O)c1ccc(N=Nc2cc3ccccc3c(C(=O)O)c2O)cc1
i	>57	COc1cccc(-c2csc3nnc(SCC(=O)NCc4cccs4)n23)c1
i	>57	O=C(CCSc1nnc(-c2ccncc2)o1)Nc1ccc(F)cc1
i	x	CC(=O)NC(N1CCCCC1)C(F)(F)C(F)(F)C(F)(F)C(F)F (centres undefined)
i	>57	CC1(C)Cc2cccc(OCC(=O)O)c2O1
x	>26	COC(=O)c1cc(OC)c(OC)cc1N
x	>11	CCOc1cccc(-c2nnc3sc(-c4cc(OC)c(OC)c(OC)c4)nn23)c1
x	>11	O=C(OCCN1CCOCC1)c1ccc2c(c1)OCCO2
i	>57	CCOC(=O)C1C(=O)NC(N2CCc3ccccc32)=NC1c1ccccc1 (centres undefined)
i	x	O=C(O)CCNc1ccccc1C(=O)O
i	x	CC(=O)Nc1ccc(S(=O)(=O)N2CCN(c3cccc(C)c3C)CC2)cc1

One compound at a time (already shown):
CC1(C)Cc2cccc(OCC(=O)O)c2O1 across the screens: YjeE inh: i; PK Bst: >57
CC(=O)Nc1ccc(S(=O)(=O)N2CCN(c3cccc(C)c3C)CC2)cc1 across the screens: YjeE inh: i; PK Bst: x

Next part
YjeE inh	PK Bst	SMILES
i	x	Cc1ccc(C2/C(=C(/O)c3ccc(Br)cc3)C(=O)C(=O)N2Cc2ccco2)o1 (centres undefined)
i	>57	Cc1cc(C(=O)OCC(=O)N2CCN(c3ccccc3)CC2)c2ccccc2n1
i	>57	CCC(=Nc1ccc(N)cc1)C1=C(O)C(C(=O)OC)C(C)(C)CC1=O (centres undefined)
i	>57	Cc1cccc2sc(NC(=O)CNS(=O)(=O)c3ccc(Br)s3)nc12
i	x	O=C(O)c1nnsc1-c1ccc(-c2snnc2C(=O)O)cc1
i	>57	CCOc1ccc(S(=O)(=O)n2ccc(C)n2)c2ccccc12
i	x	CCn1c(SCC(=O)Nc2nnc(C)s2)nc2c(c1=O)SC(C)C2 (centres undefined)
i	>57	CC1(C)CC(=O)C(C=NCc2ccc3c(c2)OCO3)=C(O)C1
i	x	COCCCNC(=O)c1cn(Cc2c(F)cccc2Cl)nn1
i	>57	CC(C)C(c1nnnn1Cc1cccs1)N1CCN(c2ccccc2)CC1 (centres undefined)
i	>57	N=c1n(Cc2ccccc2)c2ccccc2n1CC(O)COc1ccccc1 (centres undefined)
i	>57	Cn1nc(C(=O)Nc2ccc(S(=O)(=O)N3CCCCC3)cc2)ccc1=O

Random excerpt: 2 records from the list.
YjeE inh	PK Bst	SMILES
i	>57	CC(C)C(c1nnnn1Cc1cccs1)N1CCN(c2ccccc2)CC1 (centres undefined)
i	>57	Cc1cccc2sc(NC(=O)CNS(=O)(=O)c3ccc(Br)s3)nc12

Later entries.
YjeE inh	PK Bst	SMILES
i	>57	CCN(CC(=O)NCc1ccc(F)cc1)CC(O)COCc1cccc(OC)c1 (centres undefined)
i	>57	O=C(NCC(=O)N(c1ccc(F)cc1)C(C(=O)NCC1CCCO1)c1ccccc1)c1ccco1 (centres undefined)
i	x	COc1ccc(N2CCN(Cc3nc4c(c(=O)[nH]c(=O)n4C)n3CC(C)=O)CC2)cc1
i	x	CCOc1ccc(N(CC(=O)NCc2cccs2)S(=O)(=O)c2c(C)noc2C)cc1
i	>57	O=C(CN1CCN(Cc2ccccc2Cl)C1=O)NC1CCCCCCC1
i	x	NC(=O)C1CCN(C(=O)c2cc3n(n2)C(C(F)(F)F)CC(c2ccco2)N3)CC1 (centres undefined)
i	x	Cc1ccc(OCC(=O)Nc2ccc3c(c2)nc(CCN2CCOCC2)n3C)cc1
i	>57	COc1ccccc1N(CC(=O)Nc1ccc(F)c(F)c1)S(C)(=O)=O
i	>57	N#Cc1nc(Cc2cccc3ccccc23)oc1NCc1ccc2c(c1)OCO2
i	>57	CCOCCCNC(=O)c1c(-c2ccccc2)noc1C
i	x	CCOC(=O)CCC(=O)Nc1ccccc1C(N)=O
u	x	COc1ccc2[nH]cc(CCNc3ncncc3-c3ccccc3C)c2c1
i	x	Cc1ccc2oc3c(c(=O)c2c1)C(c1cccc(Cl)c1)N(CCCN1CCOCC1)C3=O (centres undefined)
i	x	CCOC(=O)O[C@]1(C(=O)COC(=O)CC)CC[C@@H]2[C@@H]3CCC4=CC(=O)C=C[C@@]4(C)[C@H]3[C@H](O)C[C@]21C
i	x	CCCNc1nc2c(c(=O)[nH]c(=O)n2C)n1CCc1ccccc1
i	>57	Nn1c(SCC(=O)Nc2ccc3c(c2)OCO3)nnc1C1CC1
i	>57	CCc1cccc(NC(=O)C2CCCN(S(=O)(=O)c3c(C)[nH]c(=O)[nH]c3=O)C2)c1 (centres undefined)
i	>57	c1cnc2ccc(C(c3nnnn3C3CCCC3)N3CCN(c4nc5ccccc5s4)CC3)cc2c1 (centres undefined)
i	>57	NC(=O)c1c(C(F)(F)F)cc(-c2ccccc2)nc1NCCO
i	u	O=C(Nc1cccc(Cl)c1)c1ccc2c(=O)n3c(nc2c1)CCCCC3
i	>57	OC12CCCCC1C(c1ccc3c(c1)OCO3)N(Cc1cccc(F)c1)CC2 (centres undefined)
i	x	CS(=O)(=O)N1CCC2(CCN(C(=O)Nc3cccc(C#N)c3)CC2)CC1
i	x	COCCN1Cc2cccc(C(=O)NCc3cccnc3)c2C1=O
i	x	CCCc1[nH]nc2c1C(c1ccc(OC(=O)c3ccco3)cc1)C(C#N)=C(N)O2 (centres undefined)
i	>57	COc1cc2c(cc1OC)C(C(=O)N1CCCC1)C(c1ccccc1F)N(C)C2=O (centres undefined)
i	x	O=C(C1CCC(Cn2c(=S)[nH]c3ccccc3c2=O)CC1)N1CCN(c2ccccc2)CC1 (centres undefined)
i	u	COc1ccccc1N1CCN(S(=O)(=O)c2ccc3c4c(cccc24)C(=O)N3C)CC1
i	>57	COc1ccc(-n2nnc3c(=O)n(Cc4ccccc4C)cnc32)cc1
i	>57	COc1ccc(C2C(C(=O)NCc3ccccc3)=C(C)Nc3ncnn32)cc1OC (centres undefined)
i	>57	COC(=O)c1ccc(=O)n(-c2ccc(OC)cc2)c1
i	x	CCN(CC)CCNC(=O)c1cc2c(=O)n(C)c3ccccc3c2n1C
i	>57	COc1ccc(-c2c3c(=O)n(C)c(=O)n(C)c3cn2NC(C)=O)cc1
i	x	CCN1CCN(C(CNS(=O)(=O)c2ccc(OC)cc2)c2cccnc2)CC1 (centres undefined)
i	x	COc1ccc(OCC(=O)N(C)Cc2ccccc2)cc1
i	>57	Cc1occc1C(=O)NC(C)C(C)(C)C (centres undefined)
i	>57	CCSc1nnc(NC(=O)c2ccc(Br)s2)s1
i	x	O=C1C2C3C=CC(C3)C2C(=O)N1c1ccc(-c2nc3ccccc3o2)cc1 (centres undefined)
i	>57	CCCN1Cc2cccc(C(=O)Nc3ccc(OC)c(OC)c3)c2C1=O
i	>57	CCCCOCCCNC(=O)N[C@@H](CCSC)C(=O)OC
i	>57	CC(C)(C)c1nc(CN2CCOCC2)ccc1O
i	>57	CC(=O)c1ccc(N2CCN(C(=O)c3ccco3)C(C)C2)c(F)c1 (centres undefined)
i	>57	COC(=O)Cc1nnc(NC(=O)c2ccccc2)s1
i	x	CC[C@H](C)N(C)C(=O)c1cc2ccccc2c(-c2ccccc2Cl)n1
x	>26	CCOC(=O)c1ccc(N=Cc2nc(-c3ccccc3)oc2OC(C)=O)cc1
i	>57	CCc1ccc2oc(=O)cc(CN3CCC(C)CC3)c2c1
32µM*	x	CCOC(=O)N1CCN(C(=O)c2cnn3ccccc23)CC1
i	x	CN1CCN(Cc2nc3cccc4c3c([n+]2[O-])-c2ccccc2-4)CC1
i	x	CCOC(=O)c1c(C2COc3ccccc3O2)csc1N (centres undefined)
i	x	COc1ccc(OC)c(N(CC(=O)Nc2ccc3c(c2)OCO3)S(=O)(=O)c2ccccc2)c1
i	>57	FC(F)(F)c1cccc(OCCOCCn2cncn2)c1
i	x	Cn1c(=O)cc(OCC(=O)N2CCC(N3CCCCC3)CC2)c2ccccc21
i	>57	O=S1(=O)N=C(N2CCN(Cc3ccc4c(c3)OCO4)CC2)c2ccccc21
i	x	COc1ccccc1-c1cc2nc(C)c(CCC(=O)NCc3ccco3)c(C)n2n1
i	>57	Cc1ccc(-c2nc(CN(C)C)cc(CN(C)C)c2O)cc1
i	>57	CC1CCN(S(=O)(=O)c2ccc(S(=O)(=O)N3CCN4CCCC4C3)cc2)CC1 (centres undefined)
i	>57	CCOC(=O)C1=C(C)NC(=O)NC1c1cc2c(cc1Br)OCO2 (centres undefined)
i	x	C(=N\c1nc2ccccc2n1Cc1ccccc1)/c1cccs1
i	x	O=C(c1ccc(CS(=O)(=O)c2c(Cl)cccc2Cl)o1)N1CCCC1
i	x	O=C1C2C(c3ccccc3)C=CC(c3ccccc3)C2C(=O)N1CCO (centres undefined)
i	>57	Cc1ccnc(NS(=O)(=O)c2ccc(NC(=O)C3CCCCC3C(=O)O)cc2)n1 (centres undefined)

Following part
YjeE inh	PK Bst	SMILES
i	x	CCOc1ccccc1C1CC(c2ccc(Cl)cc2)Nc2nc(N)nn21 (centres undefined)
i	>57	O=C(CSc1nc2c(cnn2-c2ccccc2)c(=O)[nH]1)c1ccc(Cl)cc1
i	x	Cc1cc(N2CCN(C(=O)c3ccco3)CC2)n2nc(C)nc2n1
i	x	O=C1CC(Cc2ccccc2)C(=O)N1CCc1ccc2c(c1)OCO2 (centres undefined)
i	>57	O=C(Cn1nnc(-c2cccs2)n1)OC1CCCCC1
i	x	C[C@H](CCC(=O)O)[C@H]1CC[C@H]2[C@@H]3CC[C@@H]4C[C@H](O)CC[C@]4(C)[C@H]3C[C@H](O)[C@]12C
i	x	COc1ccccc1CNc1nc(-c2cccnc2)nc2ccccc12
i	x	O=C(O)CCCCn1ccc(=O)[nH]c1=O
i	>57	Cc1ccc(NCc2nnc(SCC(=O)NCCc3ccccc3)n2C)cc1
i	>57	Cc1cc(NC(=O)CSc2nc3c(c(=O)n2-c2ccc(Cl)cc2)SCC3)no1
i	>57	Cn1c(CNC(=O)Nc2cccc(Cl)c2)nnc1SCc1ccccc1
i	>57	CCC(=O)Nc1cccc(NC(=O)c2cccnc2)c1
i	x	COc1ncc2nc(-c3ccccc3)c(=O)n(C)c2n1
x	>26	CCCCc1nc(NCC2CCCO2)c(C#N)c2c1COC(C)(C)C2 (centres undefined)
i	>57	CCc1nnc(NC(=O)CN2CCN(C3CCCCC3)CC2)s1
i	x	COc1cccc(C(=O)Nc2c(C(N)=O)oc3ccccc23)c1
i	>57	Cc1ccc(-c2noc(CCC(=O)Nc3ccc4c(c3)OCO4)n2)cc1
i	>57	CCOc1cc(-c2ccc(N)c(OCC)c2)ccc1N
i	>57	O=C(CN1C(=O)c2ccccc2S1(=O)=O)Nc1ccc(S(=O)(=O)N2CCCCC2)cc1
i	>57	COc1cc2c(cc1OC)-c1cc(N3CCCCCC3)nc(=O)n1CC2
i	x	Cc1cc(NS(=O)(=O)c2ccc(NC(=O)Nc3ccccc3)cc2)no1
i	>57	O=C(NC12CC3CC(CC(C3)C1)C2)c1cc2nc(-c3ccco3)cc(C(F)(F)F)n2n1
i	x	COc1ccc(-c2cc(C(F)(F)F)n3nc(C(=O)N4CCCC4)cc3n2)cc1
i	>57	Clc1ccc(CSc2nnc(-c3ccncc3)o2)c(Cl)c1
i	>57	O=C(O)c1ccc(CSc2n[nH]c(-c3ccco3)n2)cc1
x	u	CCSc1nc2sc3c(c2c2nnc(SCC(=O)NCc4ccco4)n12)CCCC3
i	x	O=C(c1cc(-c2ccc3c(c2)OCO3)on1)N1CCN(c2ccccc2)CC1
i	>57	CCC1CCCCN1C(=O)c1nn2cccnc2c1Cl (centres undefined)

Rewritten field by field: entries from further up
canonical_smiles: CCCCOCCCNC(=O)N[C@@H](CCSC)C(=O)OC
  YjeE inh: i
  PK Bst: >57
canonical_smiles: Cc1ccc2oc3c(c(=O)c2c1)C(c1cccc(Cl)c1)N(CCCN1CCOCC1)C3=O (centres undefined)
  YjeE inh: i
  PK Bst: x

Screens as filed in PubChem BioAssay.
